Screening data from PubChem BioAssay.
TRPML1 ag: human mucolipin-1 channel agonism; AID 624414; TRPML1-expressing cells, Ca2+ dye fluorescence, FDSS; host cell line not named in the record; reference of the full effect not given here; activation, % (concentration not given with the values); actives 0.12% (n = 410,000); Q9GZU1; in the data active = activation above about 50%; inconclusive = about 30% to 50%; inactive = below about 30%; further: 0% is about no effect; the text of the record puts the active cut at 80%
Target sequence (Q9GZU1 whole entry, looked up): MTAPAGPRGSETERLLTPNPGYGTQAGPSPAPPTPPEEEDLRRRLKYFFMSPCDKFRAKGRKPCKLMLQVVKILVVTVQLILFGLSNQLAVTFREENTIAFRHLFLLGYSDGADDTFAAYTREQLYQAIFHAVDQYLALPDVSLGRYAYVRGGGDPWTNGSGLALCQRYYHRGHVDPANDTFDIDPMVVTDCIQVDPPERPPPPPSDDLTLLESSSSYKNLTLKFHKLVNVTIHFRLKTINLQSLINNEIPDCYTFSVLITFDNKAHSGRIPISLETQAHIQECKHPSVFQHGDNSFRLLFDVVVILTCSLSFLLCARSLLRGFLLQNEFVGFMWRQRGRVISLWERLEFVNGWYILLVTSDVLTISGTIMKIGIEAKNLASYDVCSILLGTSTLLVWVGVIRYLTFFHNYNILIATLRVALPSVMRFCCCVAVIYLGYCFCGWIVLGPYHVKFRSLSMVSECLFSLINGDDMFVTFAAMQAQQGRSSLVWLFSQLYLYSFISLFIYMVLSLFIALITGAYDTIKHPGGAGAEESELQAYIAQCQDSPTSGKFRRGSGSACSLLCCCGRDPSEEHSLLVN
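Calcium fluorescence on an FDSS kinetic reader gave the read-out. Tet-induced TRPML1-DL cells were plated overnight, dye-loaded (Ca8 with quencher, 45-90 min, room temperature, dark), then read 110 s after compound addition, and again 110 s after 4uM final 54-4 (EC80).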
Menin-MLL FL inh: menin-MLL binding inhibition, fluorescein peptide | Fluorescence polarization, fluorescein-MLL peptide displacement from menin | FP activity change, % at 61.4 µM | 290,000 tested, under 10 active | AID 1766; inconclusive = falling polarisation curve, or a change in total fluorescence; inactive = total fluorescence flat and polarisation flat or rising; no compound was filed as active; the % refers to the polarisation; negative = inhibition;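 further: % of control where 0% means no effect; inhibitors lower the polarisation; unlabelled MLL peptide was the positive control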
TRPV1 potentiator: enhances activation of the human vanilloid receptor TRPV1; TRPV1-expressing cells, Fluo-8 calcium influx, capsaicin EC20 potentiation; host cell line not named in the record; control for the full effect not named in the record; Q8NER1; potentiation, % at 8.33 µM; AID 540277; actives 0.02% (n = 320,000); active means potentiation above 80%; inconclusive means 30% to 80%; inactive means below 30%; further: 0% is about no effect
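Fluo-8 calcium influx in TRPV1-expressing cells, kinetic read (ex 480/em 520 nm). Compound added and read 3 min for agonist activity, followed by capsaicin at EC20 final and 2 min further read for enhancement.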
Sfp inh: Sfp phosphopantetheinyl transferase inhibition; AID 1490; actives 3.5% (n = 310,000); Potency, µM, for the others: max response, negative = inhibition, usual class: inhibitors; Q9F4F7; Biochemical Sfp PPTase activity, qHTS; active means well fitted inhibition curve with a large enough effect; inconclusive means small, poorly fitted or top-dose-only effect, or another doubt; inactive means no such curve, though single readings can be large or run the other way;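 further: the enzyme is Sfp with the accession as filed and its product quenches rhodamine fluorescence; potency means the concentration at half of the fitted maximal effect; 0% = enzyme reaction without inhibitor and -100% = no enzyme wells; top concentration of the series not given in the record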
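Fluorescence-quenching assay with 15 nM Sfp, 5 uM rhodamine-CoA and 12.5 uM BHQ-2-labelled ybbR peptide in pH 7.6 Hepes/MgCl2 buffer. Enzyme was pre-incubated with compound for 15 min at room temperature. Rate was taken from the 30-min fluorescence change (525/598 nm).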
TRPML1 inh: inhibitors of human TRPML1 channel; Q9GZU1; TRPML1-inducible cells, Ca2+ dye fluorescence, FDSS; stronger effect = lower value; inhibition of EC80 agonist-evoked calcium signal; activity change, negative = inhibition, % (concentration not given with the values); actives 0.02% (n = 390,000); AID 624415; in the data active means activity change below about -50%; inconclusive means about -30% to -50%; inactive means above about -30%;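 further: stimulus is agonist 54-4 at its EC80 concentration; on the % scale 0 is the no-effect control and ±100 the full control effect; compound concentration not given in the record; the text of the record puts the active cut at -80%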
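Tet-induced TRPML1-DL cells loaded with Ca8 no-wash calcium dye were read kinetically on FDSS. Compound addition was followed by EC80 agonist 54-4 (4 uM final); inhibition was read over 110 s.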
PINK1 expr mod: PINK1 expression modulation. PINK1 immunofluorescence, high-content cytometry, 24 h. Potency, µM (series often up to 76.6 µM), for inactives: top-dose activation (PINK1 increase), actives largely listed as activators. actives 0.2% (n = 410,000). AID 624263; active = well fitted activation curve with a large enough effect; inconclusive = small, poorly fitted or top-dose-only effect; inactive = flat fitted curve, though single readings scatter; cell line not stated here;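 further: potency means the concentration at half of the fitted maximal effect; % of control where 0% means no effect; nearly all actives have a fitted effect of over 65% in size; a mitochondrial uncoupler was the plate control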
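PINK1 protein, normally rapidly degraded, was detected by immunofluorescence after 24 hour compound treatment of a stable cell line. Titration data (5 concentrations) came from laser-scanning cytometry, with CCCP-treated wells as controls.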
ClpP mod: qHTS Assay for Activators of ClpP | ATP-dependent Clp protease proteolytic subunit (Bacillus subtilis (strain 168)), P80244 | purified B. subtilis ClpP, FRET peptide cleavage, 20 min | Potency, µM (highest dose often 57.5 µM), without a hit: at the highest dose activity change, negative = active | actives 1.9% (n = 340,000); active = well fitted falling curve with a large enough effect; inconclusive = small, poorly fitted or top-dose-only effect; inactive = no such curve, though single readings can be large or run the other way; further: potency means the concentration at half of the fitted maximal effect; the source files actives as falling curves though it sought activators and does not explain the sign; nearly all actives have a fitted effect of over 65% in size; many hits overshoot -100%
Target sequence (P80244 whole entry, looked up): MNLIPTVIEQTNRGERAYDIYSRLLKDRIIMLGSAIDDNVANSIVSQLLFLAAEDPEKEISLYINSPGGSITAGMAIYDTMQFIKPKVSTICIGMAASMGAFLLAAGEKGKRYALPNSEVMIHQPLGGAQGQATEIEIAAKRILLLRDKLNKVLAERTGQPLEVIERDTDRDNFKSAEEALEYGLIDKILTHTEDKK
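ClpP 10 microg/mL final, pH 8 Tris/KCl buffer with BSA, glycerol, Tween-20; compound pinned in; FRET-FV substrate; RT 20 min; Ex320/Em430; ΔFRET vs ADEP 5.8 microM, DMSO, no enzyme.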
* marks the source's active call; other numbers are inactive results; ? = inconclusive; / = no result given; [ ] = remark or other dose. This is a random part of the collection. About 4.4% of those tested had a hit in this group.

SMILES	TRPML1 ag	Menin-MLL FL inh	TRPV1 potentiator	Sfp inh	TRPML1 inh	PINK1 expr mod	ClpP mod
O=C(CC1C(=O)NCCN1Cc1ccoc1)NCc1cccc(OC(F)(F)F)c1 (configuration not stated)	-0.2	0.7	-2.9	17.6%	44.3	-0.8%	-1.1%
CCN(CC)c1ccc(/C=N/NC(=O)c2c(-c3ccccc3)noc2C)cc1	2.5	-2.4	24.7	-4.5%	24.3	1.1%	/
C/C(N=Nc1nc2ccccc2s1)=N\Nc1ccccc1O	/	2.4	6.3	7.5%	/	5.8%	2.4%
O=C1CCCc2cc3c(ccc4ccccc43)cc21	-0.9	/	/	/	4.6	-0.7%	/
CC(C)c1ccc(C2=C(O)c3ccccc3C(=O)C2=O)cc1	0.8	3.3	3.0	27.9%	0.5	-1.1%	-8.0%
CCc1ccc(CN2CCC(C(=O)Nc3ccc(-n4nc(C)cc4C)cc3)CC2)o1	-0.1	/	0.5	11.7%	10.1	-0.5%	-0.1%
COc1cc(NC(=O)CN2C(=O)C(c3ccccc3)=NC23CCCCCC3)cc(OC)c1	2.7	-0.5	-4.0	19.5%	9.7	2.7%	-3.1%
CCCNC(=O)c1cnc2sc(N3CCCCCC3)nn2c1=O	-0.4	/	/	/	12.9	-0.3%	3.16µM*
COc1ccc(CCN2CC(C(=O)N(C)CC(=O)Nc3ccc(Cl)c(C(F)(F)F)c3)CC2=O)cc1OC (configuration not stated)	-0.1	/	2.7	/	35.3	5.1%	1.2%
CCc1cc2ccc(C)cc2nc1SCC(=O)Nc1cc(OC)c(OC)cc1C(=O)O	1.6	2.2	6.3	-17.7%	-4.6	2.9%	-8.8%
COc1cc(CCC(=O)Oc2ccc(C(C)=O)cc2)cc(OC)c1OC	1.4	-1.7	0.9	-4.2%	-17.8	-0.2%	1.6%
Clc1ccc2c(c1)c1ccccc1n2CN1CCOCC1	1.5	2.9	14.1	-11.8%	3.4	3.8%	-8.4%
COc1cc2ccccc2cc1C(=O)Nc1cc(C)ccn1	-0.5	/	3.0	0.6%	-1.8	1.7%	3.4%
Fc1ccccc1N1CCN(CC2CCCCC2)CC1	1.3	-4.8	-6.4	-6.5%	-12.8	11.1%	-0.7%
COc1ccc(S(=O)(=O)N2CCN(c3ncccn3)CC2)cc1[N+](=O)[O-]	-0.5	-3.0	-20.8	-1.4%	7.0	-1.5%	-3.4%
COc1ccc(OC)c(NC(=O)COC(=O)CCS(=O)(=O)c2ccc(Cl)cc2)c1	-0.2	/	/	/	-12.7	0.5%	-2.3%
Cc1ncsc1C(=O)O	0.0	0.6	7.2	-3.4%	-10.4	-1.5%	-1.7%
COC(=O)c1ccc2nc(-c3ccc(C#N)cc3)c(Cc3ccsc3)n2c1	-0.1	/	/	/	/	2.1%	-24.3%
O=C(O)CSc1ccccc1C(=O)O	-0.6	0.5	-3.1	-0.8%	18.5	-1.0%	-1.9%
C=CCNC(=O)CNS(=O)(=O)c1ccc(F)cc1	-0.4	-2.1	-10.5	16.3%	12.0	1.0%[38.3 µM]	0.4%
COc1ccc(-c2cc(C(F)(F)F)nc(SCC(=O)N(C)Cc3ccccc3)n2)cc1OC	3.0	/	/	/	34.4	0.5%	3.9%
CCOC(=O)N1CCN(C(=O)/C(=C\c2cccs2)NC(=O)c2cccs2)CC1	-0.5	1.7	8.3	7.0%	3.9	-1.8%	1.1%
CCN(Cc1ccccc1)C(=O)c1oc2ccc(C)cc2c1C	2.1	-0.3	7.3	-19.5%	-8.5	2.1%	-1.0%
Cc1cccc(Cn2c(N3CCN(C)CC3)nc3c2c(=O)n(C)c(=O)n3C)c1	0.6	2.3	-2.5	8.4%	9.7	1.6%	-0.2%
Cc1nnc(SCC(=O)N2CCN(S(=O)(=O)c3ccccc3)CC2)s1	-0.8	-1.8	16.1	-10.0%	-2.7	-0.2%	-0.2%
COCc1cc(C)nc(SCC[N+](C)(C)CC(=O)Nc2ccccc2)c1C#N	-0.4	-3.6	6.8	-0.7%	14.0	2.6%	1.3%
CC(C)(C)c1ccc(-c2n[nH]c(=S)n2-c2ccccc2)cc1	1.5	-2.5	?	15.5%	-14.4	0.8%	8.91µM*
CC1CCN(c2nc3nonc3nc2N2CCC(C)CC2)CC1	1.9	3.3	-2.9	16.5%	1.4	?	-1.2%
O=C1NC[C@@H](Cc2cccc3ccccc23)N(CC2(c3ccccc3)CC2)C1=O	0.7	0.7	-2.4	-16.6%	15.8	-0.2%	-1.2%
O=C(Cn1c(=O)n(-c2ccccc2)c(=O)c2sc3ccccc3c21)NC1CCCC1	-0.9	/	/	/	-6.9	0.2%	3.6%

Molecules shown so far with a cyano group, in the order listed:
SMILES	TRPML1 ag	Menin-MLL FL inh	TRPV1 potentiator	Sfp inh	TRPML1 inh	PINK1 expr mod	ClpP mod
COC(=O)c1ccc2nc(-c3ccc(C#N)cc3)c(Cc3ccsc3)n2c1	-0.1	/	/	/	/	2.1%	-24.3%
COCc1cc(C)nc(SCC[N+](C)(C)CC(=O)Nc2ccccc2)c1C#N	-0.4	-3.6	6.8	-0.7%	14.0	2.6%	1.3%

(listing goes on)
SMILES	TRPML1 ag	Menin-MLL FL inh	TRPV1 potentiator	Sfp inh	TRPML1 inh	PINK1 expr mod	ClpP mod
O=C(NCCCN1CCN(c2ccc(F)cc2)CC1)c1cc2c(s1)-c1ccccc1OC2	1.2	/	/	/	-17.5	-0.1%	4.2%
CCOC(=O)c1ccoc1CN1CCN(S(=O)(=O)c2ccc(C)c(C)c2)CC1	0.1	/	/	/	-12.4	-0.3%	0.9%
CCOC(=O)N1CCC(N(CCN(C)C)C(=S)Nc2ccccc2Cl)CC1	-0.4	-7.8	5.1	9.8%	-9.0	0.3%	0.9%
Cc1ccc(-c2cn3cccnc3n2)cc1NC(=O)c1cccs1	1.9	4.5	21.1	-2.6%	-8.5	1.5%	42.3%
CN(CCN1CCOCC1)Cc1nc(-c2ccccc2)no1	-0.7	0.8	1.1	3.5%	19.8	-0.3%	0.1%
Cc1cc(=O)c(C(=O)OC(C)C(=O)NC(N)=O)nn1-c1ccc(Cl)cc1 (configuration not stated)	-0.7	-14.4	-5.1	-3.5%	-25.4	0.4%	/
Oc1ccc(Br)cc1C1C=C(c2ccc3c(c2)OCO3)NC(c2cccc(F)c2)N1 (configuration not stated)	1.8	/	-10.7	/	-3.6	4.6%	/
CN(c1nnc(NC(=O)Nc2ccccc2C(F)(F)F)s1)C1CCCCC1	-0.5	/	/	/	-10.7	4.7%	2.8%
CCCCOc1ccc(C(=O)NCC(=O)NCCOc2ccc(C)cc2)cc1	-1.7	/	26.3	/	-2.0	1.5%	1.9%
CCn1cc(C(=O)N[C@@H](C)C(=O)NCCO)c(=O)c2cc3c(cc21)OCO3	0.8	1.7	-16.0	20.9%	-3.0	5.3%	/
COc1ccc(Cl)cc1NC(=O)c1cnc2n(c1=O)CCS2	-0.4	-1.7	6.6	13.2%	-13.4	2.4%	-2.2%
COC(CNC(=O)c1ccc2nc(-c3cccs3)c(-c3cccs3)nc2c1)OC	3.1	11.0	-5.2	5.9%	-6.7	4.5%	59.5%
OC(CNCc1cccc(Br)c1)c1ccccc1 (configuration not stated)	-0.8	-0.1	-5.2	13.0%	0.6	2.4%	/
CC(C)C(NS(=O)(=O)c1cc(C(=O)O)ccc1Cl)C(=O)O (configuration not stated)	-0.6	-0.6	11.9	12.9%	-4.2	2.5%	/
Cc1ccc(/C=C/C(=O)NCCc2cccc(Cl)c2)o1	1.2	8.6	0.2	20µM*	6.8	1.7%	-2.3%
CC1CCCN(S(=O)(=O)c2ccc(Cl)s2)C1 (configuration not stated)	1.3	-12.2	-5.6	14.9%	41.1	3.1%	/
Cc1ccc(CN2CCC[C@]3(N[C@H](c4ccc(C)cc4)[C@@H]4C(=O)N(C)C(=O)[C@@H]43)C2=O)cc1	-0.2	/	/	/	-13.9	2.6%	3.6%
CCOc1cc(CN2CCc3c([nH]c4ccccc34)C2)ccc1OC	0.6	-4.9	7.1	-20.7%	-6.3	1.5%	-0.7%
O=C(NCC1CCCCC1)c1csc([C@@H]2C[C@H](O)[C@@H](CO)O2)n1	-0.3	/	/	/	/	-0.5%	-1.2%
CN1CCc2c(n(CC(O)CN3C(=O)c4ccccc4S3(=O)=O)c3ccccc23)C1=O (configuration not stated)	-0.3	3.7	9.8	8.5%	0.7	0.8%	-5.2%
Cc1ccc(-c2nc3c4ccccc4n(CC(=O)NCc4ccc(F)cc4)c(=O)n3n2)cc1	1.4	/	/	/	-3.6	0.3%	-0.4%
CCOc1ccc2oc(C(=O)NCc3ccccc3CN3CCCC3)c(C)c2c1	2.3	/	-5.0	/	40.7	15.8%	3.6%
CC(C)(C)SCCNC(=O)/C=C/c1ccccc1	0.5	3.4	-28.2	11.5%	7.0	1.8%	-4.5%
CCCC12CN3CC(CCC)(CN(C1)C3c1ccco1)C2=O (configuration not stated)	-0.6	1.7	2.8	7.7%	-3.5	1.1%	/
CC(C)c1cnc2c(c1SCC(=O)NC(C)(C)C)c(=O)n(C)c(=O)n2C	2.2	/	/	/	?	-0.5%	-1.5%
CC(C)N(C(=O)Cn1cc(S(=O)(=O)CC(=O)Nc2ccccc2)c2ccccc21)C(C)C	-0.3	/	12.7	1.4%	0.4	-1.3%	1.6%
COc1ccccc1NC(=O)CCN1C(=O)c2ccccc2C1=O	-0.4	2.8	2.1	0.5%	17.2	1.6%	-0.3%
Cc1ccc(S(=O)(=O)Nc2ccc(N(C)C)cc2)cc1	3.1	0.2	6.8	-1.2%	-7.0	-0.3%	/
CCSc1ccc(-c2cccc([N+](=O)[O-])c2)nn1	1.8	0.6	4.1	-8.9%	28.5	3.1%	/
CC(C)(C)C(=O)Oc1ccc2cc(-c3ccc4ccccc4n3)c(=O)oc2c1	2.4	?	-3.6	-4.9%	-2.0	3.0%	?
COc1ccc(O)c(-c2c(-c3ccc(Cl)cc3)n[nH]c2C)c1	0.3	-2.7	1.8	-21.4%	15.4	0.3%	-0.9%
Cc1ccc(S(=O)(=O)c2c(COC(=O)c3ccccc3Cl)c(-c3ccccc3)nn2C)cc1	0.9	0.9	-5.3	11.3%	73.6	0.4%	-3.4%
Cc1onc(-c2c(Cl)cccc2Cl)c1C(=O)c1c[nH]c(C(=O)NCCCN2CCOCC2)c1	-0.7	4.0	1.5	11.3%	4.0	0.9%	-0.9%
